VDR inhibitor = vitamin D3 receptor (human) inhibition | 0.93% of 400,000 active | P11473 | VDR-SRC2-3 peptide fluorescence polarization, 2 h | Potency, µM, for the others: max response, negative = inhibition, most hits filed as inhibitors; active means well fitted inhibition curve with a large enough effect; inconclusive means small, poorly fitted or top-dose-only effect, or another doubt; inactive means no such curve, though single readings can be large or run the other way; further: series mostly up to about 120 µM
Target sequence (P11473 whole entry, looked up): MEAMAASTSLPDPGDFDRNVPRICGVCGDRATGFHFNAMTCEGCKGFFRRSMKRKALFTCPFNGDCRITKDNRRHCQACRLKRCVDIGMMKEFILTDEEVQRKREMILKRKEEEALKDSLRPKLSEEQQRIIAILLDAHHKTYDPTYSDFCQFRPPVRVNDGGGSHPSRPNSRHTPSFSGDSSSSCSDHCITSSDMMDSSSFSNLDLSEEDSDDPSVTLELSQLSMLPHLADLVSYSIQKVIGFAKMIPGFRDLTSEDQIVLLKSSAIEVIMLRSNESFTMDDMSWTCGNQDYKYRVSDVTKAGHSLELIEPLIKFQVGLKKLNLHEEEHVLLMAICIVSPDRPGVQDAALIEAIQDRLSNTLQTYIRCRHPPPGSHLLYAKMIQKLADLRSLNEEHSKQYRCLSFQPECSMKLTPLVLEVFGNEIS
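Measured by FP: displacement of SRC2-3 coactivator peptide from VDR by library compounds, following a two-hour ambient incubation.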
Active calls of the source: *; u = inconclusive. On the % scale 0 is the no-effect control and ±100 the full control effect; potency means the concentration at half of the fitted maximal effect. The list is partial; rates above refer to the full screens.

SMILES	VDR inhibitor
O=C(C1=C[C@H](c2ccc3c(c2)OCO3)C[C@H](OCc2ccc(CO)cc2)O1)N1CCOCC1	25.2%
COc1cccc(C(C(=O)NC(C)(C)C)N(C(=O)CCC(=O)Nc2cc(C)on2)C(C)C)c1OC (centres undefined)	1.5%
CCC(C(=O)O/N=C(\N)c1cccc(C)c1)c1ccccc1 (centres undefined)	0.9%
CN1C(=O)C(C)(C)c2cc(S(=O)(=O)N3CCCC3C(=O)NCc3ccccc3Cl)ccc21 (centres undefined)	-6.9%
CCN(CC)c1ccc(NC(=O)CCc2c(C)nc3ncnn3c2C)c(C)c1	-7.5%
Cc1cccc(N2CCN(C(=O)c3cccc(N4CCCC4=O)c3)CC2)c1C	3.7%
Cc1oc(-c2ccc(F)cc2)nc1CN(Cc1ccccn1)CC1CCCO1 (centres undefined)	u
Cc1onc(-c2ccccc2Cl)c1C(=O)NCCCN1CCOCC1	12.1%
Cc1ccccc1S(=O)(=O)Oc1ccccc1C(=O)Oc1ccccc1	-3.1%
Cc1cc(C(C)(C)C)oc1C(=O)N(CC(=O)NC1CCCC1)Cc1ccccc1Cl	-1.0%
Cc1cc(C(C)(C)C)oc1C(=O)N(CC(=O)NC1CCCC1)c1c(C)cccc1C	7.3%
COc1ccc(OCC(=O)NS(=O)(=O)c2ccccc2)cc1	4.0%
O=S(=O)(c1ccccc1)c1cnn(-c2ccccc2)c1-c1ccc(F)cc1	2.5%
Cc1cc(N/C=C\C(=O)c2ccc(Cl)c(Cl)c2)no1	-26.4%
FC(F)Sc1ccc(NC(=S)NCc2ccccc2)cc1	-10.7%
Cc1ccc(C(=O)NCC(=O)N2CCCN(S(=O)(=O)c3ccc(C)cc3)CC2)cc1	8.0%
CCc1cccc(C)c1NC(=S)NCC1CCN(c2ccc(OC)cc2)C1 (centres undefined)	-7.7%
Cc1cc(CNC(=O)COC(=O)C2CC3CCCC(C2)C3=O)cc(C)c1O (centres undefined)	-6.7%
O=C(CN1CCOCC1)Nc1c(Cl)cc(Cl)cc1Cl	-1.4%
CCCCC(=O)Nc1c2c(nn1-c1cccc(C)c1C)CS(=O)(=O)C2	12.6%

Five compounds from above, ordered by the number in VDR inhibitor, largest number first:
SMILES	VDR inhibitor
O=C(C1=C[C@H](c2ccc3c(c2)OCO3)C[C@H](OCc2ccc(CO)cc2)O1)N1CCOCC1	25.2%
Cc1onc(-c2ccccc2Cl)c1C(=O)NCCCN1CCOCC1	12.1%
Cc1ccc(C(=O)NCC(=O)N2CCCN(S(=O)(=O)c3ccc(C)cc3)CC2)cc1	8.0%
Cc1cccc(N2CCN(C(=O)c3cccc(N4CCCC4=O)c3)CC2)c1C	3.7%
CN1C(=O)C(C)(C)c2cc(S(=O)(=O)N3CCCC3C(=O)NCc3ccccc3Cl)ccc21 (centres undefined)	-6.9%

The list goes on.
SMILES	VDR inhibitor
OCCc1ccc(-c2ccc(Cl)cc2)o1	5.4%
CCOc1cc(N2CCOCC2)c(OCC)cc1NC(=O)CN1C(=O)NC(CC)(c2ccc(F)cc2)C1=O (centres undefined)	-7.6%
CC1CCN(C(=O)CSc2nc3c(cnn3-c3ccccc3)c(=O)[nH]2)CC1	5.0%
O=C(CCC(=O)c1ccccc1)Nc1cccnc1	7.5%
C/C(=N\NC(=O)Cn1c(C)nc2ccccc21)c1cccs1	-26.0%
CCOC(=O)N1CCN(CCC(=O)Nc2ccccc2)CC1	1.0%
Cc1cc(=O)[nH]c(N2CCCNCC2)n1	15.7%
O=C(CCl)NN=C(c1ccccc1)c1ccccc1	-3.2%
CSc1cccc(NC(=O)c2ccc3c(c2)CCCN3S(C)(=O)=O)c1	11.3%
Cc1cc(C)c2nc(N3CCCN(C(=O)c4ccco4)CC3)c(C#N)cc2c1	79.4µM*
COc1ccc(Cl)cc1C(=O)Nn1c(C)nc2ccccc2c1=O	-1.5%
O=C(NNC(=O)c1ccc([N+](=O)[O-])o1)c1ccccc1	-1.6%
COc1ccc(Br)cc1CN(C)C(=O)c1ccc2c(c1)NC(=O)C(C)S2 (centres undefined)	6.8%
CC(C)CC1(C)NC(=O)NC1=O (centres undefined)	-2.0%
Cc1c(/C(O)=C2/C(=O)C(=O)N(CCN(C)C)C2c2ccc(C(C)C)cc2)cnn1-c1ccccc1 (centres undefined)	-13.1%
CCCCN1CC(c2nc3ccccc3n2CCCCOc2ccc(C)cc2C)CC1=O (centres undefined)	8.6%
COc1cc(NC(=O)c2cc(C)on2)cc(C(=O)Nc2cccc(C(F)(F)F)c2)c1	-15.6%
Cc1cnc(C(=O)OCC(=O)NCc2ccc(Cl)cc2)cn1	13.6%
Cc1ccc(NC(=O)COC(=O)C2CC2(Cl)Cl)cc1C (centres undefined)	0.7%
C[C@@H](CN1C(=O)C(=O)NC[C@@H]1C)NC(=O)CC12CC3CC(CC(C3)C1)C2	-17.0%
O=C(COc1ccc(S(=O)(=O)NCc2ccccc2)cc1Cl)NCc1ccccn1	7.4%
Cc1ccc(C(=O)/C=C/c2ccc(-c3ccc(C)cc3)o2)cc1	-13.0%
COc1ccc(/C=c2/sc3nc(-c4ccccc4)c(-c4ccccc4)n3c2=O)cc1	12.5%
O=C(Nc1cccc2cccnc12)c1ccccc1Br	-4.9%
Cc1ccc(S(=O)(=O)NCC(=O)N(CC(=O)NCc2ccco2)Cc2ccc(F)cc2)cc1	5.8%
CCOc1ccc(C2c3cc(OCC)c(OCC)cc3CC(=O)N2c2ccc(C(=O)O)cc2)cc1OCC (centres undefined)	5.5%
O=C(CSc1ccccn1)Nc1cccc(NC(=O)CSc2ccccn2)n1	2.4%
CC1CCCCN1C(=O)CSc1nc2ccccc2[nH]1 (centres undefined)	-7.7%
CCOC(=O)c1cnn(-c2cc(C)nc3c(-c4ccccc4)cnn23)c1N	9.8%
O=[N+]([O-])c1cccc(C(=Nc2ccccc2)NO)c1	-2.3%
O=C(N/N=C\c1ccoc1)c1ccco1	10.3%
COCCc1ncc(CN2CCC(C(=O)Nc3cccc(-c4cscn4)c3)CC2)cn1	-27.5%
Nc1nonc1-n1nnc(C(=O)N/N=C/c2ccoc2)c1CSc1ccccc1	-4.0%
COc1ccc(/C=N/N2CCN(c3ccc(Cl)cc3)CC2)cc1O	-8.4%
CS(=O)(=O)c1ccc2nc(NC(=O)CN3CCC(Cc4ccccc4)CC3)sc2c1	13.9%
Cc1occc1C(=O)Nc1ccc(S(=O)(=O)N2CCN(C)CC2)cc1	-5.4%
CC(=O)c1c(C)nn(C(C)CC(=O)O)c1C (centres undefined)	-1.2%
C/C(=N\NC(=O)c1ccc2c(c1)OCO2)c1ccc(NC(=O)CCCC(=O)O)cc1	-5.9%
Cc1ccc(-c2nnc(SCC(=O)NCCN3C(=O)CSC3=O)n2C)cc1	6.9%
Cc1ccc(S(=O)(=O)N(C)C)cc1NC(=O)COC(=O)/C=C/c1cnc2ccccc2n1	-0.4%
NS(=O)(=O)c1ccc(N=C2C(=O)Nc3ccccc32)cc1	10.0%
CC(=O)Nc1ccc(NC(=O)C(C)Oc2ccc(Cl)cc2Cl)cc1 (centres undefined)	-4.5%
CCN(CC)CCCn1c2c(c(SCC(=O)Nc3ccc(C)c(F)c3)nc1=O)CCC2	-3.4%
CCOC(=O)/C(=N/O)C1=NC(C)(C)Cc2cc(C)c(C)cc21	12.3%
Cc1ccc([C@@H]2[C@@H]3C(=O)N(c4ccccc4)C(=O)[C@@H]3[C@]3(C)C(=O)N(CC4CC4)CC(=O)N23)o1	-8.3%
O=C(N/N=C/c1ccc2c(c1)OCO2)c1ccc(NC(=O)c2ccccc2Cl)cc1	-1.3%
O=C(c1ccco1)N1CCCC(N2CCN(c3cccc(C(F)(F)F)c3)CC2)C1 (centres undefined)	-12.1%
CCCCCN1CC(=O)N2C(C)c3[nH]c4ccccc4c3C[C@H]2C1=O (some centres undefined)	0.4%
COc1ccc(C)cc1S(=O)(=O)N(CC(=O)Nc1cccc([N+](=O)[O-])c1)c1ccc(C)c(C)c1	-10.8%
O=C(CC1Sc2ccccc2NC1=O)Nc1ccccc1[N+](=O)[O-] (centres undefined)	1.2%
COc1ccc(C2C(C(=O)N3CCN(c4ccc(OC)cc4)CC3)c3ccccc3C(=O)N2C)cc1 (centres undefined)	6.3%
c1ccc(CCNc2nc(-c3ccccn3)cs2)cc1	11.7%
COc1ccc(CCNC(=O)C(=O)NCC(c2ccco2)S(=O)(=O)c2cccs2)cc1OC (centres undefined)	3.4%
Cc1cc2oc(C(=O)Nc3c(C)n(C)n(-c4ccccc4)c3=O)c(C)c2cc1C	-0.6%
Cc1cc(C)c(C#N)c(SCC(=O)c2cccs2)n1	3.2%
COc1ccccc1C/C(N)=N/OC(=O)/C=C/c1ccccc1	-9.0%
O=C(Nc1ccccc1Br)c1cc(CN2CCCC2)on1	19.9%
COC(=O)c1cc(S(=O)(=O)Nc2cc(OC)cc(OC)c2)cn1C	-8.1%
CCOc1cccc(OCCCOc2cccc3cccnc23)c1	-23.8%
CCCCCCC1CC(C)(/C(C)=N/NC(N)=O)OC1=O (centres undefined)	18.6%

(listing goes on)
SMILES	VDR inhibitor
O=C(O)CCCC(=O)NCCCc1ccccc1	-11.5%
O=C(CNC(=O)c1ccccc1)N/N=C/c1cccs1	8.3%
Cc1ccc(C)c(Cn2c(=O)n(CCCCC(=O)NCc3ccccc3Cl)c(=O)c3ccccc32)c1	-4.4%
COc1ccc(-c2c(C)nn3c(-c4ccccc4)cc(C)nc23)cc1	5.7%
Nc1cc(Nc2ccccc2)ccn1	-7.3%
CCN(CC)S(=O)(=O)c1ccc(Cl)c(C(=O)NC(C)C(c2cccs2)N2CCCC2)c1 (centres undefined)	-7.1%
Cc1ccccc1NC(=S)Nc1ccccn1	-7.2%
COc1cc(NS(=O)(=O)c2cc(C)ccc2OC)c(OC)cc1Cl	-2.7%
CCOc1ccc(N2CC(NS(=O)(=O)c3cccs3)CC2=O)cc1 (centres undefined)	-15.9%
S=c1cnc2ccccc2[nH]1	u
CCCNC(=O)CN(c1ccccc1)S(=O)(=O)c1ccc(OC)c(OC)c1	17.3%
COc1ccc(C(=O)NCc2nnc(SCC(=O)Nc3nnc(C)s3)o2)cc1OC	-9.7%
CC(=O)Nc1ccc(CCc2nc3ccccc3[nH]2)cc1	-6.5%
COc1ccc(C(=O)O)cc1NC(=S)NC(=O)CSc1ccc(Cl)cc1	-16.6%
O=[N+]([O-])c1ccc(NC(=S)N2CCN(c3ccc(F)cc3)CC2)cc1	-10.4%
CCCNC(=O)c1cc2cc([N+](=O)[O-])ccc2s1	-1.0%
CN(C)Cc1ccccc1-c1cncnc1NCc1cccs1	2.5%
CC(NC(=O)CNC(=O)c1sc2ccccc2c1Cl)c1ccc(S(N)(=O)=O)cc1 (centres undefined)	-4.0%
O=C(CN1CCC(O)(c2ccccc2)CC1)Nc1ccc2c(c1)OCCO2	0.9%
CCCCc1cc(=O)oc2cc(OCC(=O)NCC3CCC(C(=O)O)CC3)ccc12 (centres undefined)	-1.7%
O=C(NCC1CCCO1)c1nn2c(C(F)(F)F)cc(-c3cccs3)nc2c1Cl (centres undefined)	-11.6%
Cc1cc(C)c2c(=O)cc(CSCC(=O)Nc3ccccc3Cl)[nH]c2c1	13.2%
Cc1ccc2nc(N3C(=O)C(O)=C(C(=O)c4ccc(C)o4)C3c3ccco3)sc2c1 (centres undefined)	u
COC(=O)c1cc2c(n(Cc3ccccc3)c1=O)CCCC2=O	-18.2%
CN(CCOc1ccccc1)CC(=O)Nc1cccc(C#N)c1	-17.8%
COc1ccccc1N1C(=O)CC(N2CCN(c3ccc(F)cc3)CC2)C1=O (centres undefined)	-11.2%
Cc1cc(=O)n(Cc2ccccc2)c2ccccc12	-10.1%
COc1ccccc1CNC(=O)COC(=O)c1cc(C)oc1C	13.1%
CCc1cccc(NC(=O)CSc2nc3ccccc3nc2N2CCCCC2)c1	-0.1%
COc1ccc2[nH]c3c(=O)n(CCN4CCOCC4)cnc3c2c1	4.1%
COC1=CC(=O)[C@@]2([C@@H]1O)[C@@H](Cl)C[C@]13C(OC)=C(OC)C(=O)C[C@]21CCN3C	3.5%
CSCCC1NC(=O)N(CC(=O)N2N=C(c3ccc(Cl)cc3)CC2c2ccco2)C1=O (centres undefined)	-0.4%
COc1cc(C(=O)Nc2sc(C(=O)N3CCOCC3)c(C)c2C#N)cc(OC)c1OC	4.6%
O=c1oc2ccc(C#CC3(O)CCCCC3)cc2cc1-n1cc(-c2ccccn2)nn1	10.0%
O=C(CN(C1CCCCC1)S(=O)(=O)c1ccc(Cl)cc1)NCc1cccnc1	4.0%
CN(C)CCCN=Cc1c(-c2ccccc2)[nH]n(-c2nc3ccccc3s2)c1=O	18.4%
CC(C)OC(=O)CSc1nc(N)c(C#N)c(-c2ccco2)c1C#N	-2.7%
CCc1ccc(S(=O)(=O)N2CCN(c3ccc(Cl)c(Cl)c3)CC2)cc1	-0.4%

By substructure, the entries above with an NH in an aromatic ring (nine)
SMILES	VDR inhibitor
CC1CCN(C(=O)CSc2nc3c(cnn3-c3ccccc3)c(=O)[nH]2)CC1	5.0%
Cc1cc(=O)[nH]c(N2CCCNCC2)n1	15.7%
CC1CCCCN1C(=O)CSc1nc2ccccc2[nH]1 (centres undefined)	-7.7%
CCCCCN1CC(=O)N2C(C)c3[nH]c4ccccc4c3C[C@H]2C1=O (some centres undefined)	0.4%
S=c1cnc2ccccc2[nH]1	u
CC(=O)Nc1ccc(CCc2nc3ccccc3[nH]2)cc1	-6.5%
Cc1cc(C)c2c(=O)cc(CSCC(=O)Nc3ccccc3Cl)[nH]c2c1	13.2%
COc1ccc2[nH]c3c(=O)n(CCN4CCOCC4)cnc3c2c1	4.1%
CN(C)CCCN=Cc1c(-c2ccccc2)[nH]n(-c2nc3ccccc3s2)c1=O	18.4%

Screens (PubChem BioAssay)
